Screens as filed in PubChem.
2A Renilla – Primary qHTS Assay for Foot and Mouth Disease Virus Antivirals against NCGC Sytravon and CBC Compound Libraries: Renilla Luciferase Signal | HEK cells with a luciferase reporter of 2A StopGo recoding | Potency, µM (top dose mostly 57.5 µM), without a hit: at the top dose signal change, negative = less light | hit rate 0.32% among 120,000 | AID 1745857, 2022; active means well fitted falling curve with a large enough effect; inconclusive means small, poorly fitted or top-dose-only effect; inactive means no such curve, though single readings can be large or run the other way; further: nearly all actives have a fitted effect of over 55% in size; overnight with compound
2A firefly – Primary qHTS Assay for Foot and Mouth Disease Virus Antivirals against NCGC Sytravon and CBC Compound Libraries: Firefly Luciferase Signal; HEK cells with a luciferase reporter of 2A StopGo recoding; Potency, µM (titrated, usually from 57.5 µM), without a hit: at the top dose signal change, negative = less light; hit rate 0.23% among 120,000; AID 1745856, 2022; active = well fitted falling curve with a large enough effect; inconclusive = small, poorly fitted or top-dose-only effect; inactive = no such curve, though single readings can be large or run the other way; further: nearly all actives have a fitted effect of over 60% in size; overnight with compound
Starred values were filed as active, the others as inactive; ? = inconclusive; & = joins results of further samples; [ ] = remark or other dose. On the % scale 0 is the no-effect control and ±100 the full control effect; potency means the concentration at half of the fitted maximal effect. The order is random (roughly 0.55% active in at least one column).

Start of the listing, in advance (three entries):
Structure	2A Renilla	2A firefly
CNC(=O)c1ccc(CN(C)c2nc3ccccc3o2)cc1	?	-42%
COCCCNC(=O)c1cc2cc(S(=O)(=O)N3CCCCC3)ccc2n1C	12%	0%
CCN(CC)CCNC(=O)C(=O)Nc1cccc2[nH]ccc12	0%	22%

The listing, previewed entries included:
Structure	2A Renilla	2A firefly
CNC(=O)c1ccc(CN(C)c2nc3ccccc3o2)cc1	?	-42%
COCCCNC(=O)c1cc2cc(S(=O)(=O)N3CCCCC3)ccc2n1C	12%	0%
CCN(CC)CCNC(=O)C(=O)Nc1cccc2[nH]ccc12	0%	22%
CC(C)(C)C(=O)Cn1cnc(C#N)n1	17%	15%
CCC(CC)NC(=O)Nc1ccc(C)c(F)c1	8%	0%
COC(=O)c1cc2occc2n1Cc1nc(-c2cccc(Cl)c2)oc1C	3%	6%
O=C(Nc1ccc(F)cc1)C1CCN(c2nc3ccccc3nc2C(F)(F)F)CC1	2%	-10%
COc1ccccc1C(=O)Nc1ccc(C(=O)OCc2cc(=O)n3ccsc3n2)cc1	6%	-8%
CCc1ccc(-n2cccc2)cc1	0%	-2%
Cc1ccc(-c2noc(-c3cccnc3NCc3ccc(Cl)cc3)n2)cc1	0%	151%[activator]
CC1CCN(c2nc3ccc(C(=O)N4CCN(c5ccccc5)CC4)cc3s2)CC1	8%	-20%
CCc1nc2nc(C)cc(Nc3ccc(OC)cc3OC)n2n1	-22%	14%
Cc1ccc(S(=O)(=O)Nc2c(C)nc3nc(C)[nH]n3c2=O)c(C)c1	-21%	-2%
COc1cccc(CNC(=O)C(Cc2ccccc2)NS(=O)(=O)c2ccc3c(c2)oc(=O)n3C)c1 (stereo not drawn)	40%[activator]	-26%
O=C(CN1C(=O)CSc2ccc(S(=O)(=O)N3CCCC3)cc21)Nc1cccc(Cl)c1	43%[activator]	?
Cc1cccc(CNC(=O)c2ccc3c(c2)c(C)c(C)n3Cc2ccccc2)c1	25%	10%
CC(=O)c1ccc(N2CCN(C(=O)c3nn(Cc4ccccc4)c(=O)c4ccccc34)CC2)cc1	83%[activator]	19%
CCn1cnc2c1c(=O)n(CC(=O)N1CCCc3ccccc31)c(=O)n2Cc1ccccc1	-6%	-14%
CCOc1ccc(N(C)S(=O)(=O)c2cc(-c3cnc(C)o3)ccc2OC)cc1	31%[activator]	-17%
Cc1cc(=O)oc2cc(OC(C)C(=O)NCc3ccccn3)ccc12 (stereo not drawn)	-6%	-2%
O=C(Nc1ccc(Cl)c(C(F)(F)F)c1)c1ccc(F)cc1	?	-23%
CN(C)c1ccc(NCc2cccc(Br)c2)cc1	-22%	100%[activator]
Cc1ccccc1NC(=O)c1c(C)oc2ccc(O)c(CN3CCC(C)CC3)c12	-19%	-30%
COCCCNC(C(=O)O)c1cn(CC(=O)O)c2ccc(OC)cc12 (stereo not drawn)	-7%	-3%
Cc1c(C(=O)NCc2ccccc2Cl)sc2nc3n(c(=O)c12)CCC3	-6%	-1%
O=C(O)CC/C(=C/c1ccc(OC(F)F)cc1)c1nc2ccccc2s1	53%[activator]	19%
Cc1cc(OCCn2cc(C(=O)c3cccs3)c3ccccc32)ccc1Cl	2%	-6%
O=S(=O)(O)CCl	10%	19%
Cc1c(-c2nc(-c3ccc4c(c3)OCO4)no2)nnn1-c1cccc(C(F)(F)F)c1	-7%	0%
CC(C)NC(=O)CNC(=O)c1cc(-c2ccc(F)cc2)nc2ccccc12	-1%	1%
CC(C)CS(=O)(=O)CCC(=O)O	23%	0%
CCOCCCNC(=O)C(Cc1ccccc1)NS(=O)(=O)c1ccc2c(c1)c(=O)n(C)c(=O)n2C (stereo not drawn)	-12%	-34%
Cc1ccc(-c2cc(C(=O)O)c3ccccc3n2)o1	8%	145%[activator]
O=c1[nH]c(-c2cccc(O)c2)nc2c1Cc1c(ccc3ccccc13)O2	-4%	8%
COc1ccccc1NC(=O)C1CCCN(c2ccc3nncn3n2)C1 (stereo not drawn)	-8%	5%
COCCn1c(C)cc(C(=O)C(=O)Nc2nnc(CSCc3cccc(C)c3)s2)c1C	-2%	7%
COCCn1c(SCC(=O)Nc2ccc(Cl)c(C(F)(F)F)c2)nc2ccsc2c1=O	7%	19%
CCOc1ccc(CCNC(=O)Cn2c(-c3cccs3)cc3ccccc32)cc1OCC	-11%	-17%
CCN(CC)c1ccc(NS(=O)(=O)c2ccc3c(c2)CCCC3)cc1C(=O)O	18%	2%
CCN1CCN(c2cc3c(cc2F)c(=O)c(C(=O)O)cn3C2CC2)CC1	6%	-4%

Given as labelled records: 3 of the compounds above.
SMILES: O=C(CN1C(=O)CSc2ccc(S(=O)(=O)N3CCCC3)cc21)Nc1cccc(Cl)c1
- 2A Renilla: 43%[activator]
- 2A firefly: ?

SMILES: CCc1ccc(-n2cccc2)cc1
- 2A Renilla: 0%
- 2A firefly: -2%

SMILES: CC(=O)c1ccc(N2CCN(C(=O)c3nn(Cc4ccccc4)c(=O)c4ccccc34)CC2)cc1
- 2A Renilla: 83%[activator]
- 2A firefly: 19%

Additional records follow:
Structure	2A Renilla	2A firefly
COc1ccc(N2CC(C(=O)Nc3c(C)nn(C)c3C)CC2=O)c(OC)c1 (stereo not drawn)	-6%	0%
O=C(O)C(c1c[nH]c2cc(Cl)ccc12)N1CCN(Cc2cccs2)CC1 (stereo not drawn)	-13%	-8%
COc1cc2nc(SCc3ccc(F)cc3)n3nc(CCn4c(C)nc5ccccc54)nc3c2cc1OC	-12%	-17%
Cc1cccc(C(=O)N2CCc3cc(CNC(=O)CCc4ccccc4)ccc32)c1	-12%	-24%
COC(=O)[C@H](Cc1ccccc1)NC(=O)Nc1ccc2oc(-c3cccnc3)nc2c1	-2%	40%[activator]
CCCCn1nc(C(=O)NC(CC)CC)c2ccccc2c1=O	25%	-4%
CCC(=O)N1CCc2cc(S(=O)(=O)NC(CC(C)C)C(=O)Nc3ccc(CC)cc3)ccc21 (stereo not drawn)	63%[activator]	16%
Cc1ccc(CNC(=O)CCc2c(C)nc3c(c(C)nn3-c3ccccc3)c2C)cc1	-2%	14%
Cc1ccc(C)c(N2CCN(C(=O)Cn3ncc4c(=O)oc5ccc(C)cc5c43)CC2)c1	-1%	-3%
COc1cccc(-c2nc(CS(=O)(=O)CC(=O)NCCCN3CCN(C)CC3)c(C)o2)c1	-8%&-1%	-6%&-1%
O=C(Cn1c(-c2ccccc2)cc2ccccc21)N1CCCCC1	27%	13%
Cn1c(=O)n(Cc2ccccc2)c(=O)c2c1nc(Br)n2CC(=O)c1ccccc1	-6%	67%[activator]
C/C(=N\NC(=O)c1ccccc1)c1ccc2c3c(cccc13)CC2	9%	148%[activator]
Cc1nc2c(-c3ccc(F)cc3)c(C)nn2c(C)c1CCC(=O)NCc1ccc(Cl)cc1	-11%	-12%
Cc1ccc(N2CCN(C(C(=O)O)c3c[nH]c4cc(NC(=O)C(C)C)ccc34)CC2)c(C)c1 (stereo not drawn)	-12%	-9%
CCc1ccc(CNC(=O)COC(=O)c2ccc(Cl)cc2)cc1	-10%	-13%

Profiles from above:
CCOc1ccc(N(C)S(=O)(=O)c2cc(-c3cnc(C)o3)ccc2OC)cc1 as listed: 2A Renilla: 31%[activator]; 2A firefly: -17%
CNC(=O)c1ccc(CN(C)c2nc3ccccc3o2)cc1 as listed: 2A Renilla: ?; 2A firefly: -42%
COCCn1c(C)cc(C(=O)C(=O)Nc2nnc(CSCc3cccc(C)c3)s2)c1C as listed: 2A Renilla: -2%; 2A firefly: 7%

Going on with the list:
Structure	2A Renilla	2A firefly
COc1ccccc1N1CCN(c2ncnc3onc(-c4cccc(Cl)c4)c23)CC1	-4%	-6%
COc1ccccc1NC(=O)CCNS(=O)(=O)c1ccc2c(c1)CCN2C(=O)C1CC1	-8%	-6%
CC(C(=O)N(C)CC(=O)Nc1ccccc1C(F)(F)F)N1CCCCC1 (stereo not drawn)	-8%	-1%
CNC(=O)c1ccc2c(c1)OCC(=O)N2	0%	-1%
O=C1CCc2cc(S(=O)(=O)NCc3ccccc3Cl)cc3c2N1CCC3	58%[activator]	7%
CCn1c(=O)c(N2CCC(NC(=O)Nc3cccc(C)c3)CC2)nc2ccccc21	-5%	5%
Cc1nc2c(ccc3c(C)c(C)[nH]c32)s1	15%	172%[activator]
Cc1oc(-c2ccccc2F)nc1Cn1c(SCc2ccccc2F)nc2ccncc21	-17%	6%
CC1CCCc2sc3nc(SCC(=O)c4ccc(Cl)cc4)nc(N)c3c21 (stereo not drawn)	-6%	0%
CCOc1ccc(-n2c(=O)c3c(C)c(C)sc3n(CC(=O)c3ccccc3)c2=O)cc1	6%	4%
CC(C)(C)c1ccc(/C=N/Nc2ccc(Cl)c(Cl)c2)cc1	0%	82%[activator]
CC(C)c1cc(C(=O)N2CCN(CC(=O)NCc3ccccc3)CC2)c2ccccc2n1	-12%	-19%
COc1ccc(NC(=O)c2cc3cc(Br)ccc3[nH]2)cc1	86%[activator]	78%[activator]
COCCNC(=O)c1cc2c(Cl)nc3ccc(C)cc3c2s1	6%	12%
COc1ccc(CNC(=O)C2CCCN(S(=O)(=O)c3ccc4c(c3)CCCN4C(C)=O)C2)cc1 (stereo not drawn)	?	?
Cc1ccc(CNS(=O)(=O)c2cc(Br)cc3c2N(C(=O)C2CC2)CC3)cc1	198%[activator]	-17%
COc1ccc(NC(=O)CCCc2nc(C(C)C)no2)cc1OC1CCCC1	-8%	-17%
CCn1c(NCc2c[nH]c3ccccc23)nc2ccccc21	11%	126%[activator]
COc1ccc(-c2nc(CCNC(=O)c3ccc(Br)o3)cs2)cc1	?	-23%
Cn1c(=O)c2c(ncn2CCC(=O)Nc2cc(F)cc(F)c2)n(C)c1=O	10%	18%
Nc1cc(=O)[nH]c(SCc2c(F)cccc2Cl)n1	29%	0%
CCOc1ccc(Nc2ncnc3onc(-c4ccc(Cl)cc4)c23)cc1	18%	17%
CN(CC(=O)NCCC#N)c1ccc(C(C)(C)C)cc1	6%	17%
CCCn1ccc2c(OCC(=O)NCc3ccccc3Cl)cccc2c1=O	67%[activator]	0%
Nc1nccnc1C(=O)Nc1ccc(C(=O)NCc2ccc(F)cc2)cc1	7%	11%
CC(C)CCNc1nc2c(c(=O)[nH]c(=O)n2C)n1CC(O)COC(C)C (stereo not drawn)	12%	2%
Cc1c(CNC2CCCCCC2)c(C(=O)O)c(C)n1Cc1ccc(F)cc1	-7%	-20%
CCCc1nc2nc(C)c(NS(=O)(=O)c3ccc(C)c(C)c3)c(=O)n2[nH]1	-8%	-15%
Cc1cccc(Cn2c(SCc3ccccc3)nc3c2c(=O)n(C)c(=O)n3C)c1	-4%	2%
Cc1cccc(NC(=O)c2cc(-c3ccc(C)o3)nc3ccccc23)n1	33%[activator]	89%[activator]
O=C(CCc1ncc(-c2ccc(Cl)cc2Cl)o1)Nc1nccs1	-10%	0%
CC(Sc1nc2ccccc2n1C)C(=O)NCc1ccc(Cl)cc1 (stereo not drawn)	-6%	19%
Cc1ccc(-n2c(/C=C/c3ccc(Br)s3)nc3ccccc3c2=O)cc1C	-14%	-17%
CCOc1ccccc1CNCc1cccn1-c1nnc(N2CCN(c3ccccc3)CC2)s1	-31%	28%
CCCn1c(-n2nc(C)cc2C)nc2c1c(=O)n(CC(=O)OC)c(=O)n2C	-3%	5%
Cc1nc(/C=C/C(=O)N(CCC#N)Cc2cccnc2)cs1	-3%	-12%
CCOc1ccc(NS(=O)(=O)c2ccc(N)cc2)nn1	0%	-8%[11.5 µM]
Oc1ccc2ccccc2c1C=NCC12CC3CCC(CC(C3)C1)C2	-6%	4%
Cc1cccc(-c2nc3c4ccccc4n(CC(=O)Nc4cccc(F)c4)c(=O)n3n2)c1	-5%	108%[activator]
Cc1ncc(CO)c2c1Oc1nc(-c3ccccc3)nc(SCC(=O)N3CCCCC3)c1C2	-3%	-5%
CC(NC(=O)c1ccc(Cl)o1)c1ccc(S(N)(=O)=O)cc1 (stereo not drawn)	-4%	-2%
COc1ccc(C2CC(=O)N(Cc3ccc(F)cc3)c3ccccc3S2)cc1 (stereo not drawn)	-28%	?
CCOc1ccc(S(=O)(=O)Nc2nc3ccccc3nc2NC2CC(C)(C)NC(C)(C)C2)cc1	23%	21%
Cc1ccc(C(NC(=O)Cc2n[nH]c(=O)c3ccccc23)c2ccccc2)cc1 (stereo not drawn)	-4%	11%
Cc1ccc(CNCC(O)c2ccccc2)s1 (stereo not drawn)	9%	34%[activator]
CCCOc1cccc(-c2cc(C(=O)OC)c3ccccc3n2)c1	5%	20%
COc1ccc(C2CC(=O)c3c([nH]c(C(=O)OC4CCC(C)CC4)c3C)C2)cc1OC (stereo not drawn)	-8%	7%
CCC(C)NC(=O)c1cc2sc3ccccc3c2s1 (stereo not drawn)	0%	217%[activator]
CN(Cc1ccccc1Cl)C(=O)c1ccccc1O	146%[activator]	0%
